FGF22 binding – binders of human FGF22 protein, primary screen, FGF22 synaptogenesis inhibitor project, biophysical, thermal shift, single point | calls only at 9.99 µM | recombinant FGF22 thermal shift, SYPRO orange fluorescence; percent of sucrose octasulfate shift, DMSO zero | hit rate 1.5% among 340,000 | Fibroblast growth factor 22 (Homo sapiens), Q9HCT0 | AID 651658, 2012;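 active = melting point raised past a set limit in the mean and every replicate; inconclusive = no clear call; three in four hits are not shown here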
Target sequence (Q9HCT0 whole entry, looked up): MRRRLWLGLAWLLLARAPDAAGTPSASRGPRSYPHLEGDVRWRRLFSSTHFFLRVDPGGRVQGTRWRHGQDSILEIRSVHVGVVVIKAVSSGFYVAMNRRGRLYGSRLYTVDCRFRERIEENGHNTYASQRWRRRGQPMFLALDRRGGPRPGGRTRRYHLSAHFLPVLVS
E coli growth – E. coli growth inhibition, primary screen, OD600; hit rate 0.21% among 330,000; Escherichia coli growth, 23 h; stronger effect = lower value; OD600 absorbance (test concentration not listed);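 active = OD600 absorbance below the run mean of sample wells minus 3.6 SD, in any replicate, cut at about 0.56 in these data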;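 note: stock transfer was 300 nL into about 60 µL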
RanGTP-Impb inh – inhibitors of RanGTP-importin-beta interaction, primary screen, biochemical, FRET, CFP-Ran, YFP-importin-beta, homogeneous; hit rate 1.1% among 300,000; Ran GTPase (GTP-bound) - importin-beta complex; inhibition, % (concentration not given with the values); AID 2216, 2009; cell-free CFP-Ran/YFP-importin-beta FRET ratio;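 active = most replicates above 15%; inconclusive = exactly half above 15%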;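 note: 0% = DMSO wells and 100% = Ran loaded with GDP instead of GTP; wells of about 40 µL received 100 nL stock; the first replicate is given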
UCH37 DUB inh – inhibitors of human UCH37 deubiquitinase, primary screen, biochemical, Ub-AMC cleavage, fluorescence; Ubiquitin carboxyl-terminal hydrolase isozyme L5 (Homo sapiens), Q9Y5K5; purified proteasome/UCH37; inhibition, % (concentration not given with the values); hit rate 0.33% among 330,000; AID 588478, 2011;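 active = mean of two replicates above 20%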;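 note: 0% = compound-free wells with enzyme and 100% = wells lacking proteasome; stock transfer was 100 nL into about 20 µL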
Target sequence (Q9Y5K5 whole entry, looked up): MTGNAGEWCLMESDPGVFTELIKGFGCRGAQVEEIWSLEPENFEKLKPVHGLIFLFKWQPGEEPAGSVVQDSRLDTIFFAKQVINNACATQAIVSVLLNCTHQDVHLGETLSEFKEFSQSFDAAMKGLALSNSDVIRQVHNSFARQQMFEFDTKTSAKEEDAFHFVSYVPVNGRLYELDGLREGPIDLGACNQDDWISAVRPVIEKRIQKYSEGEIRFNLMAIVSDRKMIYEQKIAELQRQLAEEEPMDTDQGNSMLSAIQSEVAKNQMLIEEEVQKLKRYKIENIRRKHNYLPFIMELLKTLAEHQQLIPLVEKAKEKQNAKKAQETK
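system = Proteasome-associated human UCH37 deubiquitinase | amount = 0.15 nM proteasome as dispensed | medium = pH 7.4 Tris-HCl (50 mM) with ovalbumin, ATP-MgCl2, DTT | incubation = 30 min preincubation with enzyme, 25 min cleavage at room temperature | detection = AMC fluorescence 355/460 nm | read-out basis = percent inhibition | controls = no-proteasome and no-compound wells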
AF4-AF9 inh – inhibitors of AF4 peptide binding to AF9, primary screen, biochemical, AlphaScreen, biotin-AF4 peptide, FLAG-AF9, single point. hit rate 0.47% among 350,000. inhibition, % at 10 µM. AID 651704, 2012;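 active = every replicate reaching a set inhibition limit, whatever the replicate mean, cut at about 25% in these data; inconclusive = mean inhibition reaches that limit but some replicates miss it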;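 note: 0% = plate neutral control median and 100% = total signal loss; the record names both 10 and 1 µM as test concentration; the first replicate is given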
HNF4A DNA FP – change in binding of human HNF4A to DNA, primary screen, biochemical, fluorescence polarization, FITC-DNA. AID 1224865, 2016. hit rate 0.3% among 360,000. 1 h. activity change, % at 10 µM. Hepatocyte nuclear factor 4-alpha (Homo sapiens), P41235; in the data active = activity change above about 30%, passing the limit was not always enough;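 note: controls were the assay level and a saturating level of protein; the project sought stronger binding though the title names inhibitors; some compounds called inactive have numbers as strong as hits; positive values seem to mean higher polarization but the record does not say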
Target sequence (P41235 whole entry, looked up): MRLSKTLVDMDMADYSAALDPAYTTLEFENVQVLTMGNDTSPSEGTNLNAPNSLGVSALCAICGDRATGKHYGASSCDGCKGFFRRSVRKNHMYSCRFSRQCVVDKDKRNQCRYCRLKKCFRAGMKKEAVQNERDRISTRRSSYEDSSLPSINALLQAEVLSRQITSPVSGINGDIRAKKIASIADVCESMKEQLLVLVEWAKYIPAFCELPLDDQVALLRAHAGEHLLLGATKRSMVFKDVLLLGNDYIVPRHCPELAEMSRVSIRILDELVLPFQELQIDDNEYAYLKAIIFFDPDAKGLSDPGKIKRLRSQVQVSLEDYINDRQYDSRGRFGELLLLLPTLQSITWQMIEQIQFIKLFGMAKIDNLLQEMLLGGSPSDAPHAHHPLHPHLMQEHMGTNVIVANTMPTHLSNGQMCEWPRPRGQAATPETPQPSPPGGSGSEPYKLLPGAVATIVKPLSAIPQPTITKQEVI
Vif A3G – inhibitors of Vif binding to APOBEC3G peptide, primary screen, biochemical, TR-FRET, GST-Vif 1-94, biotin-A3G peptide, dose response retest (AID 1117319); inhibition, %; hits with a dose series show IC50 in µM; hit rate 0.57% among 260,000; TR-FRET GST-Vif / biotin-A3G peptide binding; higher % means a stronger effect; test concentration not given here; strong numbers were not always called active;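 active = above the screen mean plus three standard deviations and confirmed in dose response; inconclusive = results disagree or hit not tested in dose response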;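 note: Vif residues 1-94 fused to GST binding biotinylated APOBEC3G peptide 110-148; 0% = full assay without inhibitor and 100% = GST in place of GST-Vif; retest series ran down from 100 µM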
* = called active by the depositor; i = inactive; ? = inconclusive; / = not tested or not shown; & = joins results of further samples. The list is partial; rates above refer to the full screens.

SMILES	FGF22 binding	E coli growth	RanGTP-Impb inh	UCH37 DUB inh	AF4-AF9 inh	HNF4A DNA FP	Vif A3G
CCOc1ccc(C2=Nn3c(nnc3-c3ccccc3OC)SC2)cc1	/	0.69	-0.7	6.1	/	3.5	-5%
CC(C)(C)Nc1c(-c2ccc(O)cc2)nc2ccc(Cl)cn12	i	0.71	4.2	-27	-1.1	-0.8	12%
CCN(CCCNC(=O)c1c(C)cc(=O)oc1C)c1ccccc1	/	0.67	3.9	12	/	0.2	3%
c1ccc(CNc2nc(-c3cccnc3)cs2)cc1	i	0.62	?	-1.8	3.9	-5.5	/
CC(C)(C)n1nnnc1C(c1cccnc1)N1CCN(C2CCCCC2)CC1 (stereo unspecified)	/	0.72	1.5	2.2	/	1.3	-9%
O=C(NC1CC1)c1ccc(NC(=O)C2CCCC2)cc1	i	/	/	/	-8.0	0.9	-3%
C[C@H](NC(=O)C1CCN(S(=O)(=O)c2ccccc2)CC1)C(=O)NCc1ccccc1	i	0.7	-0.2	3.7	0.7	-0.3	/
CCN(CC)CCCn1c2c(c(SCC(=O)Nc3ccc(C)c(F)c3)nc1=O)CCC2	i	0.7	2.9	0.5	4.4	-1.7	4%
COc1ccccc1C(=O)Nc1ccc(S(=O)(=O)N2CCc3ccccc32)cc1	i	0.68	0.8	4.4	-7.1	-1.5	?
O=C(C[n+]1ccc(C(=O)NCc2ccccc2)cc1)c1ccc(OC(F)F)cc1	i	0.7	-0.2	0.7	1.9	-5.4	10%
CC(=O)NC1CC2CCCC(C1)N2Cc1ccc(C)cc1 (stereo unspecified)	i	0.71	-0.3	1.9	-5.4	3.5	/
CC(C)(C)NC(=O)C(c1cccc2ccccc12)n1c(=O)c(-c2ccco2)nc2ccccc21 (stereo unspecified)	i	/	/	/	5.0	26	/
CC(=O)N1c2c(cc(Br)cc2S(=O)(=O)N2CCN(c3ccccn3)CC2)CC1C (stereo unspecified)	/	0.72	-0.9	2.1	/	4.2	6%
O=C(N/N=C/c1ccc(F)cc1)c1sccc1OCc1ccc(F)cc1	/	/	-0.8	/	/	-2.6	8%
Cc1ccc(OCc2cc(C(=O)NCc3ccc(OC(F)(F)F)cc3)no2)cn1	i	0.66	2.1	3.8	-3.7	-3.0	/
COc1ccccc1NC(=O)Nc1nnc(Cc2ccccc2F)s1	i	0.7	3.5	5.9	-3.5	0.0	-4%
CSc1ncccc1C(=O)Nc1ncc(C)s1	i	0.67	?	5.9	-2.2	0.3	-1%
COc1ccc(-c2csc(NC(=O)c3cccc(S(=O)(=O)N4CCN(C)CC4)c3)n2)cc1	/	0.74	0.0	-11	/	-1.2	5%
CC(=O)Nc1sc(C)c(C)c1C(=O)OCC(=O)N(CCC#N)c1cc(C)cc(C)c1	i	0.69	/	3.4	-0.5	-2.4	-13%
CS(=O)(=O)Nc1ccccc1C(=O)O	/	0.71	1.7	-1.9	/	1.1	-7%
Cc1c(-c2cccc(Cl)c2)nc2ccccc2c1C(=O)OCC(=O)N(C)C1CCS(=O)(=O)C1 (stereo unspecified)	i	0.66	-3.0	-3.0	0.7	-0.1	11%
O=C(O)CCCCNS(=O)(=O)/C=C/c1ccccc1	i	0.73	-2.3	0.5	0.2	2.5	-4%
CCc1ccc(NC(=O)CSc2nc3ncc(Br)cc3[nH]2)cc1	i	0.69	-2.8	2.6	-4.6	-4.2	-5%
COc1ccc(C2/C=C\CC(OCc3ccccc3)CC(=O)N2Cc2cccc(F)c2)cc1 (stereo unspecified)	i	0.71	/	2.1	-1.3	1.3	-2%
CCCCN(C)C1CCN(C(=S)Nc2cccc(OC)c2)CC1	i	0.65	1.5	2.0	-3.7	0.9	/
(listing goes on)
SMILES	FGF22 binding	E coli growth	RanGTP-Impb inh	UCH37 DUB inh	AF4-AF9 inh	HNF4A DNA FP	Vif A3G
Cc1ccc(Oc2c(F)c(F)nc(N3CCCC3)c2F)cc1	i	0.65	-1.0	-2.9	-0.8	1.3	/
CC(C)NC(=O)c1ccccc1-c1ccccc1	/	0.69	1.6	-1.4	/	-5.4	17%
CC(C)NC(=O)CSCc1c(F)cccc1Cl	/	0.62	-4.2	-0.8	/	2.6	-2%
CC(O)(CS(=O)(=O)Cc1ccccc1)C(=O)Nc1ccc(C(F)(F)F)cc1 (stereo unspecified)	/	0.76	5.4	0.8	/	-1.7	30%
CC1CN(CC(=O)NN=C(c2ccccc2)c2ccccc2)CC(C)O1 (stereo unspecified)	i	0.72	2.1	2.4	-0.2	0.4	-6%
Cn1c(=O)c(Oc2ccc(F)cc2)c(O)c2ccccc21	i	0.68	4.9	-0.4	-7.6	1.7	-6%
CCCN1CCN(C(=O)Cn2ncc3ccccc32)CC1	i	0.78	0.8	6.9	-4.0	-12	?
COC(=O)[C@]1(C)N[C@H](CN(C)C(=O)Nc2ccc(Cl)cc2)[C@@H]2C(=O)N(Cc3ccccc3)C(=O)[C@@H]21	i	0.69	/	1.8	-2.5	0.5	-9%
COc1ccc(C(=O)NCCOc2cccc(OC)c2)cc1	i	0.68	3.8	5.1	-0.4	7.0	1%
COc1ccc(CC(=O)OCC(=O)N2CCN(S(=O)(=O)c3ccc(C)cc3C)CC2)cc1	i	0.66	/	5.3	1.0	2.5	13%
Cc1ccc(NC(=O)COc2ccc(Br)cn2)cc1	i	0.72	0.1	2.4	-2.1	-1.1	?
Clc1ccccc1-c1nnc(-c2ccccc2Cl)o1	/	0.63	-1.0	2.3	/	-0.1	0%
O=C1CCC([N+](=O)[O-])C(c2ccccc2C(F)(F)F)N1 (stereo unspecified)	i	0.66	1.1	5.7	1.7	3.3	-5%
CN1CCN(c2ccccc2NC(=O)c2ccc(-c3ccc(Cl)cc3Cl)o2)CC1	/	0.67	10.0	-6.2	/	0.5	3%
COC(=O)CN(c1cccc(C)c1)S(=O)(=O)c1ccccc1	i	0.68	-0.2	0.1	2.1	0.0	5%
O=C(COC(=O)/C=C/c1ccc(F)cc1)NC1CC1	i	0.63	/	2.1	0.5	-0.4	/
COc1cc(/C=N/O)ccc1Oc1cnccn1	i	/	-2.7	/	-1.1	-4.2	-1%
O=C(CN1CCCC1)NCc1ccccc1	i	0.69	0.2	1.1	1.0	-2.1	/
O=C(c1cc(Cl)nc2ccccc12)N1CCN(S(=O)(=O)c2ccccc2[N+](=O)[O-])CC1	i	0.67	-1.1	2.0	-5.9	2.2	/
CCn1c(COc2ccccc2)nc2ccccc21	/	0.67	1.9	2.1	/	0.0	19%
COC(=O)CCCCCCCCCC[N+]1(C)CCCCC1	/	0.61	1.5	1.2	/	2.8	-3%
CCOc1ccc(/C=N/Nc2ccc(Cl)nn2)c(O)c1	i	/	1.9	/	2.4	0.0	/
COC(=O)C1CCN(C(=O)COc2ccc(S(=O)(=O)N3CCOCC3)cc2Cl)CC1	i	0.66	/	-1.1	-2.8	-1.3	1%
Cc1ccc(S(=O)(=O)/N=S(\C)C(C)C)cc1 (stereo unspecified)	/	0.68	4.7	0.6	/	-0.4	17%
CC1CN(C2CCCCC2)C(=S)N(c2ccccc2)C1=O (stereo unspecified)	i	0.67	/	1.0	-3.3	0.6	-1%
Other compounds:
SMILES	FGF22 binding	E coli growth	RanGTP-Impb inh	UCH37 DUB inh	AF4-AF9 inh	HNF4A DNA FP	Vif A3G
CCOC(=O)c1c2c3c(cccc3[nH]c1=O)C(=O)c1ccccc1-2	/	0.73	-2.4	0.0	-0.1	-7.9	1%
CCc1ccc(C(=O)NNC(=O)c2cccc(S(=O)(=O)N3CCN(C)CC3)c2)cc1	i	0.69	/	3.3	12	-0.8	1%
COc1ccc(N2C(=O)Cc3c2nc(N)c(C#N)c3N)cc1	i	0.67	0.1	5.1	3.1	1.4	?
Cn1cc(C(=O)N/N=C/c2ccc([N+](=O)[O-])cc2)c2ccccc21	i	/	1.4	/	-3.5	24	-4%
COc1ccccc1CNC(=O)CCc1c(C)nc2cc(-c3ccccc3OC)nn2c1C	i	0.68	3.9	-6.2	5.6	-0.1	/
O=C(O)CC(NC(=S)NCc1ccccc1)C(=O)O (stereo unspecified)	i	0.68	-1.1	1.4	-2.4	-3.3	4%
COCC(C)NC(=O)c1cc(-c2cccc(OC)c2)on1 (stereo unspecified)	i	0.66	3.5	-0.7	-3.8	-1.2	18%
COc1ccc(OC2C(=O)N(c3ccc(F)cc3)C2c2ccc(OC)c(OC)c2)cc1 (stereo unspecified)	i	0.72	-5.4	-0.2	-2.9	1.3	0%
COCCNC(=O)C(C)N(c1ccc(Oc2ccccc2)cc1)S(C)(=O)=O (stereo unspecified)	/	0.7	0.4	-0.2	/	1.8	2%
CCOc1cc(/C=C2/NC(=O)N(Cc3ccccc3F)C2=O)ccc1O	/	0.78	-0.9	2.6	/	3.4	1%
C[C@H](CO)N1C[C@H](C)[C@@H](CN(C)Cc2ccc(-c3ccccc3)cc2)Oc2c(NC(=O)Nc3ccc(C(F)(F)F)cc3)cccc2C1=O	i	/	/	2.8	1.9&2.3	4.1	/
O=C(O)c1cccnc1SCc1ccccc1Cl	i	0.72	-2.8	1.2	-1.0	-2.1	21%
COC(=O)c1ccc(/C=N\NC(=O)c2ccc(C)cc2Cl)cc1	/	/	8.4	/	/	-0.2	-2%
CCN(CC)C(=O)CNC(=S)N(CCCN1CCOCC1)Cc1cccs1	/	0.66	2.5	0.7	/	2.0	/
COC(=O)c1cccc(CSc2nc(-c3ccccc3)c(C#N)c(=O)[nH]2)c1	i	0.64	0.1	-1.1	-7.4	1.1	-21%
CCOC(CNCc1cc(C)c2[nH]c3ccccc3c2c1C)OCC	i	0.63	/	3.9	6.8	-3.5	4%
O=C(/C=C/c1ccccc1Cl)Nc1ccc(S(=O)(=O)Nc2ncccn2)cc1	i	0.69	8.2	4.8	-1.8	0.0	-3%
CC1(C(=O)NS(=O)(=O)c2ccc(C#N)cc2)CCN1C(=O)CC1CCCC1 (stereo unspecified)	i	/	/	/	-0.2	1.6	/
CCOc1ccc(NC(=O)Nc2ccc(NC(C)=O)cc2)cc1	i	0.67	0.5	3.4	-3.1	2.6	-8%
COc1ccccc1NS(=O)(=O)c1cc(NC(=O)c2ccc(=O)[nH]c2)ccc1N1CCOCC1	i	0.72	?	10	4.3	-0.1	?
O=C(N[C@@H](c1ccccc1)[C@H](O)c1ccccc1)[C@@H]1CCCN1C(=O)OCc1ccccc1	i	/	6.0	3.8	3.6	2.1	/

Retrieved by structure from the entries so far:
SMILES	FGF22 binding	E coli growth	RanGTP-Impb inh	UCH37 DUB inh	AF4-AF9 inh	HNF4A DNA FP	Vif A3G
CCN(CC)C(=O)CNC(=S)N(CCCN1CCOCC1)Cc1cccs1	/	0.66	2.5	0.7	/	2.0	/
COc1ccccc1NS(=O)(=O)c1cc(NC(=O)c2ccc(=O)[nH]c2)ccc1N1CCOCC1	i	0.72	?	10	4.3	-0.1	?
COCC(C)NC(=O)c1cc(-c2cccc(OC)c2)on1 (stereo unspecified)	i	0.66	3.5	-0.7	-3.8	-1.2	18%
COCCNC(=O)C(C)N(c1ccc(Oc2ccccc2)cc1)S(C)(=O)=O (stereo unspecified)	/	0.7	0.4	-0.2	/	1.8	2%
COc1ccccc1CNC(=O)CCc1c(C)nc2cc(-c3ccccc3OC)nn2c1C	i	0.68	3.9	-6.2	5.6	-0.1	/

Screening results from PubChem BioAssay.
